Screening results deposited in PubChem BioAssay by several laboratories.
Beta2AR agonist – activates human beta-2 adrenergic receptor causing internalization. P07550. Am2.2-beta2AR cells, FAP receptor internalization, flow cytometry; reference of the scale not given here. response, % (test concentration not listed). hit rate 0.43% among 340,000. AID 504454;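 active means response above a set limit, near 3 SD of response in nonfluorescent compounds, cut at about 42% in these data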;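 further: stock transfer was 100 nL into about 11 µL; a reference agonist was the positive control; negative values mostly stem from fluorescent compounds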
E coli growth – inhibitors of Escherichia coli growth | OD600, 23 h; hits give low values | OD600 absorbance (concentration not given with the values) | hit rate 0.21% among 330,000 | AID 1053175;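 active means OD600 absorbance below the run mean of sample wells minus 3.6 SD, in any replicate, cut at about 0.56 in these data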;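 further: stock transfer was 300 nL into about 60 µL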
A1 inh – inhibitors of the anti-apoptotic protein A1, read as caspase activation; MEF A1-2A-BIM cells, Caspase-Glo 3/7 luminescence, 3 h; percent of clofoctol response, vehicle zero; caspase activation, % (concentration not given with the values); hit rate 0.066% among 330,000;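 active means over half of replicate activation scores above 10%, or exactly half above 10 with the replicate mean above 10; inconclusive means replicate mean below 10 yet half the replicates above 10; inactive means over half of replicates below 10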;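 further: wells of about 30 µL received 50 nL stock; many hits fall short of the cut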
UCH37 inh – blocks the human deubiquitinase UCH37. Q9Y5K5. purified proteasome/UCH37, Ub-AMC cleavage fluorescence. inhibition, % (no concentration beside the values). hit rate 0.33% among 330,000. AID 588478;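 active means mean of two replicates above 20%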;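 further: 0% = compound-free wells with enzyme and 100% = wells lacking proteasome; stock transfer was 100 nL into about 20 µL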
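system = Proteasome-associated human UCH37 deubiquitinase | amount = 0.15 nM proteasome as dispensed | medium = pH 7.4 Tris-HCl (50 mM) with ovalbumin, ATP-MgCl2, DTT | incubation = 30 min preincubation with enzyme, 25 min cleavage at room temperature | detection = AMC fluorescence 355/460 nm | read-out basis = percent inhibition | controls = no-proteasome and no-compound wells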
HNF4A DNA FP – change in binding of human HNF4 alpha to DNA; P41235; HNF4a-FITC DNA binding, fluorescence polarization, 1 h; activity change, % at 10 µM; hit rate 0.3% among 360,000; in the data active means activity change above about 30%, passing the limit was not always enough;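 further: controls were the assay level and a saturating level of protein; the project sought stronger binding though the title names inhibitors; some compounds called inactive have numbers as strong as hits; positive values seem to mean higher polarization but the record does not say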
LANA-H2B inh – blocks KSHV LANA binding to histone H2A/H2B. inhibition, % (no concentration beside the values). Q9QR71. AID 2629. hit rate 0.6% among 320,000. cell-free LANA-H2A/H2B peptide, fluorescence polarization; in the data active means inhibition mostly above about 10%, no sharp cut-off; inactive means mostly below about 6.7%;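 further: stock transfer was 7.5 nL into about 10 µL; 0% = median of vehicle wells and 100% = median of positive control wells; one replicate is shown; the record names a cut of 25% in any replicate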
Target sequence (Q9QR71 whole entry, looked up): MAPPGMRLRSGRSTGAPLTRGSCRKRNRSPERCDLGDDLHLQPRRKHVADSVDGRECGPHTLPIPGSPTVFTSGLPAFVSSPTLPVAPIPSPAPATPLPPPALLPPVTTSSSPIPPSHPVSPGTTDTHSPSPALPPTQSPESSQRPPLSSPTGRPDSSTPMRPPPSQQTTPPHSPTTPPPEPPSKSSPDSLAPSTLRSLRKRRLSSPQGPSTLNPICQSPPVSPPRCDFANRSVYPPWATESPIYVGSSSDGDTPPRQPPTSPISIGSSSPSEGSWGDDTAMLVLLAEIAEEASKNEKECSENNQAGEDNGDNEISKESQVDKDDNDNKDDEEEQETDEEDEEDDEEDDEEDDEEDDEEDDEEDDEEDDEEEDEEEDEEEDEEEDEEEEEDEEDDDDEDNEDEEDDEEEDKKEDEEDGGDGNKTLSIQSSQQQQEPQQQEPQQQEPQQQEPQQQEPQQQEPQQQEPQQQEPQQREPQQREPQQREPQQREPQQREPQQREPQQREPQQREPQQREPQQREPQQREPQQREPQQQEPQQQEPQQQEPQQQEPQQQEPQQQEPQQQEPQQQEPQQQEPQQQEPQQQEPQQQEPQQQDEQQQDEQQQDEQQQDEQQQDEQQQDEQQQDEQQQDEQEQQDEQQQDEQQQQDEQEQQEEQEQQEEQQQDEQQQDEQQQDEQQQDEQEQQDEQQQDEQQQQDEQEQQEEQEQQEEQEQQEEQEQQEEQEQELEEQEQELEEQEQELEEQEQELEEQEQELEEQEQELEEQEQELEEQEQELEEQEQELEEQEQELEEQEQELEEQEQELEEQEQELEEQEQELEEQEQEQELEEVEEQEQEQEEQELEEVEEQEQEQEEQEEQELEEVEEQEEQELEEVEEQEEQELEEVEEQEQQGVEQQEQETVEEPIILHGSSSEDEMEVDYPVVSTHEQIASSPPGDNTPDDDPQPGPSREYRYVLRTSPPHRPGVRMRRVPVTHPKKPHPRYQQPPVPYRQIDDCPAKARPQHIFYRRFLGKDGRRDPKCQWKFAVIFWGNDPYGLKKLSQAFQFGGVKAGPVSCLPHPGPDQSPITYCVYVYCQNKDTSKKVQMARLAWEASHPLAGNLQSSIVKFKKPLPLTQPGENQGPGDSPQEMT
Vif TR-FRET – inhibitors of Vif binding to APOBEC3G peptide, primary screen, biochemical, TR-FRET, GST-Vif 1-94, biotin-A3G peptide, dose response retest (AID 1117319); TR-FRET GST-Vif / biotin-A3G peptide binding; higher % means a stronger effect; test concentration not given here; strong numbers were not always called active; one-dose inhibition, %; IC50 in µM for titrated hits; hit rate 0.57% among 260,000;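 active means above the screen mean plus three standard deviations and confirmed in dose response; inconclusive means results disagree or hit not tested in dose response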;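 further: Vif residues 1-94 fused to GST binding biotinylated APOBEC3G peptide 110-148; 0% = full assay without inhibitor and 100% = GST in place of GST-Vif; retest series ran down from 100 µM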
* = called active by the depositor; ? = inconclusive; / = not tested or not shown.

Each structure is followed by: LANA-H2B inh	HNF4A DNA FP	Vif TR-FRET	A1 inh	E coli growth	UCH37 inh	Beta2AR agonist
Cc1cc2oc(=O)c3c(c2cc1OC(=O)c1ccco1)CCCC3
 : 0.7	-1.0	25%	-1.2	0.75	-3.9	6
O=C(Nc1nccs1)c1ccc(N2C(=O)C3CCCCC3C2=O)cc1 (stereo not drawn)
 : -3.7	-4.9	1%	-0.7	0.73	0.4	-3
COC(C/C=C/[C@@H](O)[C@@H](C)OCc1ccccc1)OC
 : 2.2	-1.6	/	1.2	/	1.4	-2
CCc1c(O)nc(SCC(=O)N2CCOCC2)n(-c2ccccc2)c1=O
 : -1.8	8.2	15%	-0.4	0.71	2.2	-8
O=C(Oc1ccc(/C=N/NC(=O)c2ccccn2)cc1)c1cccc(Br)c1
 : -6.5	-4.8	/	-8.6	/	/	-1
COc1ccc(N2CCN(C(CNC(=O)C(C)(C)C)c3cccnc3)CC2)cc1 (stereo not drawn)
 : 1.6	0.1	/	0.7	0.69	4.3	-3
CCN(CC1CCCN(CCc2cccc(F)c2)C1)C(=O)c1cc2ccccc2o1 (stereo not drawn)
 : -0.3	-0.1	-12%	0.3	0.64	3.9	-2
CCC(C(=O)OCC(=O)Nc1cc(Cl)ccc1Cl)c1ccccc1 (stereo not drawn)
 : 1.2	0.0	?	-0.4	0.68	5.2	2
CN(Cc1ccccc1)C(=O)COC(=O)c1ccc(S(=O)(=O)N(C)C)cc1
 : -2.8	1.4	-7%	0.3	0.66	3.9	5
O=C(Cn1cnc2c(nnn2Cc2ccccc2)c1=O)c1ccc(Cl)cc1
 : 1.3	0.9	7%	-0.8	0.71	1.5	6
CCOc1cc(-c2c(C#N)c(=O)[nH]c3c2c(C)nn3-c2ccc(F)cc2)ccc1O
 : 1.0	-1.4	6%	0.3	0.72	-23	2
CCCCc1nccn1CCn1ccnc1CCCC
 : -1.4	-1.4	76%	-0.4	0.7	5.3	-4
Cc1nc2ccccn2c1-c1csc(Nc2cccc(O)c2)n1
 : /	-1.0	2%	/	0.66	-8.7	1
Cc1cc(C(=O)N2CCN(S(=O)(=O)c3ccc(C)c(C)c3)CC2)no1
 : /	-1.0	4%	/	0.65	0.6	4
COc1ccc(OC)c(C(=O)/C=C/c2cccnc2)c1
 : 1.4	-2.1	?	1.1	0.66	-3.3	4
Cc1ccc(-c2nnnn2-c2ccccc2C(=O)O)cc1
 : -11	5.7	/	0.3	0.62	-0.1	0
CC1CC(C)(C)N2C(=O)C3(Nc4ccccc4S3)c3cccc1c32 (stereo not drawn)
 : -0.8	1.0	2%	0.5	0.67	5.1	-4
COc1ccc(NC(=O)CSc2nc3sc(C)c(C)c3c(=O)n2Cc2ccco2)cc1
 : 2.8	0.5	2%	0.0	0.71	3.0	0
O=C(CCC(=O)N(CC(=O)NC1CCCC1)Cc1ccc2c(c1)OCO2)Nc1ccccn1
 : -1.1	-0.8	-1%	-0.2	0.78	2.6	-1
Cc1cccc(OCC(=O)Nc2ccc(S(=O)(=O)N3CCCC3)cc2)c1
 : 5.7	3.2	-3%	-0.8	0.63	3.5	-3
CCn1cc(Cl)c(C(=O)Nc2c(C)nn(Cc3c(F)c(F)c(F)c(F)c3F)c2C)n1
 : /	0.2	-1%	/	0.69	4.2	-9
CCCCn1c2ccc(F)cc2c2nnc(SCCN3CCCCC3)nc21
 : /	1.7	-5%	/	0.66	5.2	-5
CCC12CN3CC(CC)(CN(C1)C31C(=O)N(C)c3ccc(C)cc31)C2=O (stereo not drawn)
 : -4.0	0.6	9%	0.4	0.68	3.5	0
CCOC(=O)CC(=O)CSCC(=O)Nc1ccc(C)cc1
 : 2.9	-1.8	-1%	-0.7	0.66	1.4	6
CCOc1ccc(/C(O)=C2/C(=O)C(=O)N(c3ncccn3)C2c2ccccc2)cc1 (stereo not drawn)
 : -0.3	-0.3	12%	-0.1	0.66	10.0	0
COCCNC(=O)CSc1nc2ccccc2c(=O)n1CC1CCCO1 (stereo not drawn)
 : 0.5	6.0	-8%	1.5	0.75	7.9	1
CN(CC1CCOCC1)C(=O)CC1C(=O)NCCN1Cc1cccc(F)c1 (stereo not drawn)
 : -1.1	-4.6	-7%	0.6	0.68	-30	3
COC(=O)c1sc(N2C(=O)c3oc4ccccc4c(=O)c3C2c2cccc(O)c2)nc1C (stereo not drawn)
 : 5.0	6.3	1%	-1.0	0.66	1.1	-18
COc1ccc2c(c1)N(C)/C(=C1/SC(=NCc3ccccc3)N(c3ccccc3)C1=O)S2
 : -5.5	19	0%	0.9	0.81	-5.7	-10
COc1cccc(CNC(=O)Cn2cccc2)c1
 : 0.8	4.9	-1%	-0.3	0.65	-3.2	4
COC(=O)CCn1nc(-c2ccc(C)cc2)c2ccccc2c1=O
 : -1.0	1.4	-1%	1.5	0.69	-3.8	4
CCn1cc(-c2ccccc2)c(C(=O)O)c1-c1ccc(OC)cc1
 : 1.0	-0.3	/	0.8	0.66	-1.9	0
O=C1CCCC2=C1C(c1ccncc1)Nc1ccccc1N2 (stereo not drawn)
 : 2.3	1.6	1%	0.1	0.72	9.0	-5
C=CCOc1ccc(/C(O)=C2\C(=O)C(=O)N(CCOC)C2c2cccnc2)cc1 (stereo not drawn)
 : -0.5	1.9	-2%	-0.7	0.68	13	7
Cn1c(=O)c2c(ncn2CC(=O)N/N=C/C=C/c2ccccc2[N+](=O)[O-])n(C)c1=O
 : 0.2	/	10%	0.6	/	/	/
COc1ccc(CNC(=O)CCNC(=O)c2ccc(C(C)(C)C)cc2)cc1OC
 : /	-2.1	-4%	/	0.7	0.7	-3
NS(=O)(=O)c1ccc(NC(=O)CCc2ccccc2)cc1
 : -0.5	-1.5	3%	-0.4	0.62	0.6	-1
CCCCn1c(-c2csc3c2CCC(C)C3)n[nH]c1=S (stereo not drawn)
 : 0.5	4.3	0%	0.4	0.69	6.2	-4
CC(=O)OC(COc1cccc(C)c1)Cn1cnc2ccccc21 (stereo not drawn)
 : 0.1	-4.2	10%	0.2	0.68	0.2	2
COc1cccc(C(=O)N2CCC(CCC(=O)Nc3cccc(C)c3)CC2)c1
 : 17	-2.8	6%	0.5	0.7	2.7	10
COc1cccc(CNC(=O)C2CCN(S(=O)(=O)N3CCC4(CC3)OCCO4)CC2)c1
 : 0.9	0.3	-1%	0.0	0.69	-0.2	-6
Cc1ccccc1OCCCC(=O)Nc1nncs1
 : -6.2	-0.2	1%	1.2	0.67	0.8	-7
CC(C)N(C(=O)CSc1nnc(NC2CC2)s1)c1ccccc1
 : 2.9	0.3	/	0.8	0.63	-1.0	-4
COc1ccccc1NC(=O)c1cc(Br)ccc1Cl
 : -0.3	-2.6	1%	1.2	0.71	5.1	3
CCN(CC)CCOc1nc(C)nc2c1oc1ccccc12
 : -0.4	0.7	-1%	1.1	0.66	1.0	-2
CC(C)C[C@H](NC(=O)OC(C)(C)C)c1nnc(SCC(=O)Nc2ccc(Br)cc2)o1
 : -2.1	-0.8	-1%	-0.4	0.65	-1.5	11
O=C(Nc1ccc(S(=O)(=O)NCc2cccnc2)cc1)c1ccccc1Cl
 : 0.4	1.8	4%	0.3	0.72	5.8	-1
CCc1ccccc1NC(=O)CN(C)C(=O)COc1ccc(C)nc1[N+](=O)[O-]
 : -1.2	3.1	/	0.2	0.67	2.8	-11
COc1ccc(OC)c(NC(=O)C2CCCCC2)c1
 : 1.4	2.1	9%	-1.0	0.73	0.5	-9
COc1cc(C(=O)OCC(=O)c2cc(C)n(CC3CCCO3)c2C)ccc1OCC(=O)N1CCOCC1 (stereo not drawn)
 : 5.2	-1.4	/	-0.2	0.69	1.3	6
CCN(C(=O)c1cccc(S(=O)(=O)N(C)C)c1)C12CC3CC(CC(C3)C1)C2
 : -0.4	1.5	9%	-0.2	0.65	3.0	8
O=C(COc1ccc(Cl)cc1Cl)N(c1ccccn1)C1CCCCC1
 : 0.9	-2.1	-9%	-0.4	0.7	6.1	-6
O=C(Cn1ncc(Cl)c(Cl)c1=O)NC1CCS(=O)(=O)C1 (stereo not drawn)
 : 1.3	-1.4	-7%	0.0	0.71	1.3	0
CN1CCC/C1=C/C=C1\SC(=S)NC1=O
 : -4.8	-4.8	/	0.0	0.67	35*	2
O=C(OCc1ccccc1)N1C=CC2CC1c1c(Cl)cccc12 (stereo not drawn)
 : /	-2.1	-3%	/	/	/	-9
Cn1nnnc1SCC(=O)NCc1cccs1
 : 0.7	-4.4	1%	0.3	0.7	0.4	1
O=C(CN1CCN(C/C=C/c2ccccc2)CC1)NC(=O)NC1CCCCC1
 : 3.7	1.0	/	-0.1	0.71	1.6	-2
CC(NC(=O)c1ccccc1Cl)C1COc2ccccc2O1 (stereo not drawn)
 : 0.4	0.9	28%	0.8	0.67	2.1	4
O=C(NNC(=O)c1ccccc1-n1cccc1)c1ccc(Cl)cc1Cl
 : 0.3	-1.0	-1%	0.1	0.72	3.0	5
O=C(Nc1ccccc1Br)C(=O)N1CCCC1
 : -3.7	-2.4	-3%	-0.7	0.69	1.2	-3

Of the compounds above, these have a nitro group on carbon.
Each structure is followed by: LANA-H2B inh	HNF4A DNA FP	Vif TR-FRET	A1 inh	E coli growth	UCH37 inh	Beta2AR agonist
Cn1c(=O)c2c(ncn2CC(=O)N/N=C/C=C/c2ccccc2[N+](=O)[O-])n(C)c1=O
 : 0.2	/	10%	0.6	/	/	/
CCc1ccccc1NC(=O)CN(C)C(=O)COc1ccc(C)nc1[N+](=O)[O-]
 : -1.2	3.1	/	0.2	0.67	2.8	-11

Following part:
Each structure is followed by: LANA-H2B inh	HNF4A DNA FP	Vif TR-FRET	A1 inh	E coli growth	UCH37 inh	Beta2AR agonist
Cc1ccc(Cl)cc1N1CCN(C(=O)c2ccc3nc[nH]c3c2)CC1
 : -8.4	2.2	8%	0.2	0.71	3.4	1
Cn1c(=O)c2c(nc(OCC3COC(C)(C)O3)n2Cc2ccccc2F)n(C)c1=O (stereo not drawn)
 : 2.0	2.2	-4%	1.0	0.74	-0.6	-12
Cc1ccc(C(=O)Nc2ncc([N+](=O)[O-])s2)cc1
 : -6.2	-1.0	/	-7.8	0.64	11	10
O=C(CSc1nnc(-c2ccc(Br)cc2)o1)N1CCN(C(=O)c2ccco2)CC1
 : -0.8	-3.8	0%	0.3	0.7	4.1	-10
COC(=O)c1ccc(S(=O)(=O)N2CCc3ccccc32)cc1
 : 7.1	3.1	-1%	0.7	0.71	1.4	1
CCN1CCC(=NNC(=O)c2ccc(C)c([N+](=O)[O-])c2)CC1
 : 1.8	-4.1	7%	-0.8	0.71	0.8	3
CCOC(=O)C(=CNNc1c(C)csc1C(=O)OC)C(=O)OCC
 : 3.8	-4.0	-1%	0.4	0.63	2.0	-3
O=C(NNC(=O)c1ccco1)c1ccccc1
 : 3.2	-3.8	/	0.7	0.72	4.4	-12
O=C(NNC(=O)c1sccc1-n1cccc1)Nc1ccccc1
 : 4.0	2.6	-2%	0.5	0.66	3.5	-1
COc1cccc(OC)c1CN(C)C(=O)c1cnccc1C(F)(F)F
 : -5.4	3.3	2%	0.1	0.68	1.6	-4
O=S(=O)(NCC(c1ccc2c(c1)OCO2)N1CCOCC1)c1ccc(F)cc1 (stereo not drawn)
 : /	2.7	3%	0.2	0.63	3.3	-5
CCc1cc2c(=O)n(CCCOC)c(SCC(=O)Nc3oc(C)c4c(C)n[nH]c(=O)c34)nc2s1
 : 0.5	-0.1	-4%	-0.1	0.68	1.0	5
